Assay outcomes: PubChem BioAssay, National Center for Advancing Translational Sciences (NCATS)
NS1 function inh – inhibitors of influenza NS1 protein function. 270,000 compounds, 0.4% hits. Potency, µM (titrated, usually from 46.1 µM), for the others: at the highest dose activity, positive = more growth. S. cerevisiae slowed by influenza A NS1, growth recovery by OD600; active means well fitted rising curve with a large enough effect; inconclusive means small, poorly fitted or top-dose-only effect; inactive means no such curve, though single readings can be large or run the other way; further: nearly all actives have a fitted effect of over 50% in size
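Compounds were scored for reversing the slow growth caused by influenza A NS1 in S. cerevisiae, measured by optical density at 600 nm. Assay medium contained 2% galactose at pH 6.0; NS1-free yeast of the same strain were the positive control.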
RE007 growth inh – less growth of the S. pombe RE007 Vpr strain | S. pombe RE007 Vpr strain, BacTiter-Glo ATP luminescence, 24 h; control for the full effect not named in the record | Potency, µM (doses to about 92.2 µM), without a hit: at the highest dose activity change, negative = less growth | 360,000 compounds, 0.21% hits | AID 651644; active = well fitted falling curve with a large enough effect; inconclusive = small, poorly fitted or top-dose-only effect; inactive = no such curve, though single readings can be large or run the other way;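 further: on the % scale 0 is the no-effect control and ±100 the full control effect; nearly all actives have a fitted effect of over 50% in size; the assay follows cell death caused by Vpr and the record does not say whether a fall means rescue or toxicity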
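Fission yeast strain RE007, carrying one chromosomally integrated HIV-1 vpr copy, was seeded at OD 0.01 in PMG+AL medium with 23 nL pinned compound. After 24 h at 30 °C and 99% humidity, viability was read by BacTiter-Glo luminescence.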
Cruzain inh Det – blocks cruzain activity in presence of Triton detergent; P25779; purified cruzain, Z-FR-AMC fluorescence, 0.01% Triton; Potency, µM, without a hit: max response, negative = inhibition, most hits filed as inhibitors; 200,000 compounds, 0.43% hits; AID 1478;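 further: plate controls were neutral wells for no effect and buffer without enzyme for full effect; nearly all actives have a fitted effect of over 40% in size; top concentration of the series not given in the record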
Target sequence (P25779 123-467 limits assumed): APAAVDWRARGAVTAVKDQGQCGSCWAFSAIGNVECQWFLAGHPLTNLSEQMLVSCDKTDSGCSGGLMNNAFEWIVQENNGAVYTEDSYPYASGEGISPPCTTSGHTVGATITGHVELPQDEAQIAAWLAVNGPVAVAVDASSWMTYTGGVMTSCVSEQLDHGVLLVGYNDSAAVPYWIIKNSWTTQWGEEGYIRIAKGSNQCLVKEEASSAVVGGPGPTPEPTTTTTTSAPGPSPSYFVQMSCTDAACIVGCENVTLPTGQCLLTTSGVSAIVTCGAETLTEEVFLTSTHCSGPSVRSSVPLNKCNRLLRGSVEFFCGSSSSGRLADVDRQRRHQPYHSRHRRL
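Compounds were screened in titration against cruzain (1.5 nM) with 0.01% Triton X-100 to counter colloidal aggregation. Activity was the AMC fluorescence increase over 60 s after adding 2 uM Z-FR-AMC at pH 5.5.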
Marburg entry inh – blocks Marburg virus binding to or entry into cells; Potency, µM (titrated, usually from 37.8 µM), for the others: top-dose activity change, negative = inhibition, usual class: inhibitors; 300,000 compounds, 1.8% hits; Marburg virus pseudotyped entry inhibition, cell reporter; control for the full effect not named in the record; about a third of the inactives were read at about 46 µM; active = well fitted inhibition curve with a large enough effect; inconclusive = small, poorly fitted or top-dose-only effect, or effect the other way; inactive = flat fitted curve, though single readings scatter; tested in HEK293 cells; about a fifth of its hits are not listed in these tables; further: on the % scale 0 is the no-effect control and ±100 the full control effect; luciferase read-out
Cruzain inh noDet – inhibitors of Trypanosoma cruzi cruzain without detergent. Potency, µM, for inactives: max response, negative = inhibition, actives largely listed as inhibitors. 200,000 compounds, 2.3% hits. purified cruzain, Z-FR-AMC fluorescence, no detergent. AID 1476;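 further: plate controls were enzyme without inhibitor for no effect and buffer without enzyme for full effect; nearly all actives have a fitted effect of over 40% in size; top concentration of the series not given in the record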
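Detergent-free condition (0.00005% Triton X-100) in acetate buffer pH 5.5 with DTT. 1.5 nM enzyme and compound were pre-mixed 15 min, then 2 uM Z-FR-AMC substrate added; reaction progress from fluorescence change between first and third reads (60 s).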
SARS PLP yeast – blocks SARS-CoV papain-like protease in a yeast assay. Potency, µM (titrated, usually from 32.9 µM), inactives show top-dose activity, positive = growth rescue. AID 485353. S. cerevisiae expressing SARS-CoV PLpro, growth rescue; control for the full effect not named in the record. 330,000 compounds, 0.19% hits; active means well fitted rising curve with a large enough effect; inconclusive means small, poorly fitted or top-dose-only effect; inactive means no such curve, though single readings can be large or run the other way; further: 0% is about no effect; nearly all actives have a fitted effect of over 55% in size; growth read by luminescence after 48 h
StopGo reporter – lowers the luciferase signal of an FMDV 2A StopGo reporter | AID 1159524 | human cells with a luciferase reporter of 2A StopGo recoding; control for the full effect not named in the record | 410,000 compounds, 1.2% hits | Potency, µM (top dose mostly 57.9 µM), inactives show at the top dose signal change, negative = less light; active = well fitted falling curve with a large enough effect; inconclusive = small, poorly fitted or top-dose-only effect; inactive = no such curve, though single readings can be large or run the other way; tested in HEK293T cells; further: on the % scale 0 is the no-effect control and ±100 the full control effect; nearly all actives have a fitted effect of over 45% in size; luciferase light after 4 h
Lassa entry inh – inhibitors of Lassa virus binding or cell entry | Lassa virus pseudotype entry inhibition, cell reporter; control for the full effect not named in the record | Potency, µM (highest dose often 37.9 µM), for the others: at the highest dose activity change, negative = inhibition, actives largely listed as inhibitors | 300,000 compounds, 1.2% hits | AID 540256; active means well fitted inhibition curve with a large enough effect; inconclusive means small, poorly fitted or top-dose-only effect, or effect the other way; inactive means flat fitted curve, though single readings scatter; tested in HEK293 cells; further: on the % scale 0 is the no-effect control and ±100 the full control effect; nearly all actives have a fitted effect of over 50% in size; luciferase read-out
Numbers without * were called inactive; ? = inconclusive; · = not tested or not shown; [ ] = another dose, or the depositor's remark. Unless noted, the call rests on the fitted dose curve; in most records, active means well fitted curve in the direction sought with a large enough effect; inconclusive means small, poorly fitted or top-dose-only effect, or another doubt; inactive means no such curve, though single readings can be large; an effect the other way counts as inactive or inconclusive. Potency means the concentration at half of the fitted maximal effect.

SMILES	NS1 function inh	RE007 growth inh	Cruzain inh Det	Marburg entry inh	Cruzain inh noDet	SARS PLP yeast	StopGo reporter	Lassa entry inh
CC1CCN(C(=O)Cn2cc(SCC(=O)NCc3ccccc3Cl)c3ccccc32)CC1	·	·	-1.3%	·	3%	·	-13%	14%[46.1 µM]
Fc1ccc(/C=N/n2c(COc3ccccc3)n[nH]c2=S)cc1	5%	-18%	·	?	·	-1%	3%	?
CCOc1ccc(-c2nn3c(-c4ccccc4)nnc3s2)cc1	-38%	1%	-5.7%	13%	?	0%	0%	-21%[14.3 µM]
S=C(NCC1CCCO1)n1nnc2ccccc21 (configuration not stated)	?	-11%	-5.8%	10%	-8%	-5%	2%	-2%
COc1ccc(/C=C\C(=O)NC2CC(=O)N(c3ccc(F)cc3)C2)cc1OC (configuration not stated)	·	·	-6.6%	·	-5%	·	-13%	0%[46.1 µM]
CCN(CC(=O)NCc1ccc(Cl)cc1)C(=O)c1c(C)noc1C	·	-1%	·	8%	·	-2%	-14%	-17%
O=C(NC1CCCCCC1)C1CCCN1S(=O)(=O)c1cccc2cccnc12 (configuration not stated)	-2%	-6%	1.3%	·	-3%	-7%	-3%	·
Cc1sc(NC(=O)c2ccco2)nc1-c1ccc2c(c1)CC(C)N2C(=O)C1CC1 (configuration not stated)	-2%	9%	-6.2%	10µM*	11%	-2%	14µM*	9.2µM*
Cc1cc(C)nc(N/N=C/c2c(C)oc3ccccc23)n1	·	-24%	·	-2%[46.1 µM]	·	2%	-10%	17%[46.1 µM]
Nc1cc(=O)[nH]c(SCc2csc(-c3ccccc3)n2)n1	12%	6%	-3.2%	?	?	-15%	0%	?
Cc1cc(C)c(-n2[nH]nnc2=S)c(C)c1	0%	4%	·	·	·	0%	-2%	·
O=C(NCC(=O)N1CCCCCC1)c1ccc(Cl)cc1	1%	3%	·	?	·	?	46%[activator]	20%
COc1ccccc1NC(=O)C1CCN(S(=O)(=O)c2cccc3nonc23)CC1	3%	1%	·	2%[46.1 µM]	·	-3%	12%	19%
CCCC(=O)Nc1ccc2c(c1)nc(CN1CCN(C(=O)OCC)CC1)n2C	1%	15%	·	-28%[46.1 µM]	·	1%	-1%	-11%[46.1 µM]
Cc1ccc(Cl)cc1NC(=O)C1CCC(CNS(=O)(=O)c2cccc3nsnc23)CC1 (configuration not stated)	·	·	1.8%	-2%[46.1 µM]	0%	·	-18%	13%[46.1 µM]
Cc1ccc(-c2cccc(C3CC=CC4C3C(=O)N(Cc3ccccc3)C4c3ccc4ccccc4c3)c2)cc1 (configuration not stated)	9%	2%	·	·	·	-1%	-29%	·
COC(=O)CN1C(=O)C2(C(C#N)=C(N)Oc3c2c(C)nn3-c2ccccc2)c2ccccc21 (configuration not stated)	-22%	-4%	-5.4%	?	-2%	1%	-3%	-17%
O=C(COC(=O)c1cc(=O)c2ccccc2o1)Nc1c(F)c(F)c(F)c(F)c1F	·	12%	·	11%	·	-1%	-5%	5%
Cc1cc(NC(=O)C23CC4CC(CC(C4)C2)C3)n[nH]1	19%	6%	·	?	·	3%	4%	7%[46.1 µM]
COc1ccc(NS(=O)(=O)c2ccc(N3CCOCC3)c(NC(=O)c3ccco3)c2)cc1	·	-1%	·	-8%[46.1 µM]	·	0%	65%[activator]	?
Cn1cccc1/C=N/N1CCN(Cc2cccc3ccccc23)CC1	1%	-5%	·	1%	·	8%	?	1%
C/C(=N/NC(=O)c1sc(NS(=O)(=O)c2ccccc2)nc1C)c1sc(N)nc1C	9%	3%	·	2%	·	11%	3%	8%
CCc1ccc(NS(=O)(=O)c2[nH]ncc2C(=O)OC)cc1	·	·	0.1%	?	7%	·	22%	23%[46.1 µM]
CCc1ccc(C(=O)CSc2nc3cc(S(=O)(=O)N4CCOCC4)ccc3n2CC)cc1	24%	4%	-2.9%	?	5%	-31%	-1%	-5%
COc1ccc(CCNC(=O)CN(c2cc(OC)ccc2OC)S(=O)(=O)c2ccccc2)cc1	-40%	5%	·	?	·	6%	-7%	?
Other entries:
SMILES	NS1 function inh	RE007 growth inh	Cruzain inh Det	Marburg entry inh	Cruzain inh noDet	SARS PLP yeast	StopGo reporter	Lassa entry inh
COc1ccc(S(=O)(=O)N2CCOC2CNC(=O)C(=O)NCc2ccccn2)cc1C (configuration not stated)	1%	-9%	·	6%	·	19%	-25%	9%
Cc1cccc(C)c1OC(=O)CCN1C(=O)C2C3C=CC(C4CC34)C2C1=O (configuration not stated)	6%	-10%	·	-10%[46.1 µM]	·	2%	24%	-16%[46.1 µM]
COc1ccc(/C=C(\C#N)c2nc(-c3cc(Cl)ccc3OC)cs2)cc1	·	·	1.0%	·	-1%	·	-25%	-19%[46.1 µM]
O=C(COc1ccc(S(=O)(=O)NC2CCCCC2)cc1)Nc1ccc2c(c1)OCCO2	-75%	26%	-1.7%	·	-14%	3%	63%[activator]	·
COC(=O)[C@H](Cc1ccccc1)NC(=O)NCCc1ccc(OC)cc1	?	-3%	·	?	·	0%	2%	-2%
CCOc1ccc(C(=O)c2oc3ccccc3c2NC(=O)c2cc(=O)c3ccc(C)cc3o2)cc1	·	·	1.7%	?	10%	·	-15%	7%[46.1 µM]
COc1cc(/C=C(\C#N)C(=O)NCC2CCCO2)ccc1OC(=O)c1ccco1 (configuration not stated)	·	-12%	·	?	·	-10%	12%	11%
O=c1cccccc1NCc1ccccc1	?	-15%[3.69 µM]	0.0%	10%	-9%	15%	47%[activator]	26%
CCOC(=O)N1CCN(C(=O)c2ccc3c(=O)n(-c4ccc(F)cc4)c(=S)[nH]c3c2)CC1	4%	7%	-4.3%	-3%	16%	5%	-20%	1%
CCOC(=O)c1[nH]c(C)c(C(=O)OC(C)C(=O)Nc2ncc(Cl)cc2Cl)c1C (configuration not stated)	4%	2%	3.5%	?	3%	5%	-15%	?
Cc1cccc(N2CC34C=CC(O3)C(C(=O)O)C4C2=O)c1 (configuration not stated)	2%	-3%	3.2%	6%	-8%	-2%	13%	?
Nn1c(SCC(=O)Nc2ccc(F)cc2F)nnc1C1CCCCC1	-4%	-4%	2.6%	29%	-8%	18%	72%[activator]	?
COC(=O)c1ccc(Cn2c(SCc3ccccc3F)nc3ccncc32)cc1	·	·	-9.0%	20%[46.1 µM]	-5%	·	-4%	·
COc1ccc(C(=O)Nc2ccc(Cl)cc2C(=O)c2ccccc2)c(OC)c1	·	·	-3.5%	·	-25%	·	-29%	-15%[46.1 µM]
CCOCCn1cnc2sc(C(=O)NCC(=O)OCC)c(C)c2c1=O	-4%	0%	-2.7%	?	5%	4%	37%[activator]	-2%
CCC(=O)N1CCc2cc(Br)cc(S(=O)(=O)NCCc3ccccc3)c21	·	·	-3.0%	23%[46.1 µM]	-3%	·	86%[activator]	-2%[46.1 µM]
O=C(O)Cn1nc(C(F)(F)F)c2c1CCC2	5%	18%	-2.9%	21%	5%	1%	8%	3%
CCC(=O)Oc1ccc2c(c1)O/C(=C\c1ccco1)C2=O	-87%	?	·	9%[46.1 µM]	·	-2%	-1%	1%[46.1 µM]
NC1=C(O)C(=O)C(c2ccccc2)O1 (configuration not stated)	-4%	-3%	·	·	·	0%	-18%	·
O=C(CN1C(=O)NC2(CCCC2)C1=O)OCCOc1ccc(Cl)cc1	·	-4%	·	2%	·	1%	-20%	-23%
CCOc1ccc(-c2cnc(SCC(N)=O)nc2N)cc1	1%	-13%	3.8%	26%	-4%	6%	-15%	-5%
CCO/N=C(\C)c1c(O)c2ccccc2n(C)c1=O	-13%	?	-1.6%	5%	-5%	-48%	0%	20%
O=C(NCc1ccccc1)N1CCCC1	-8%	8%	·	·	·	-14%	3%	·

Compounds listed so far containing an NH in an aromatic ring (seven):
SMILES	NS1 function inh	RE007 growth inh	Cruzain inh Det	Marburg entry inh	Cruzain inh noDet	SARS PLP yeast	StopGo reporter	Lassa entry inh
Fc1ccc(/C=N/n2c(COc3ccccc3)n[nH]c2=S)cc1	5%	-18%	·	?	·	-1%	3%	?
Nc1cc(=O)[nH]c(SCc2csc(-c3ccccc3)n2)n1	12%	6%	-3.2%	?	?	-15%	0%	?
Cc1cc(C)c(-n2[nH]nnc2=S)c(C)c1	0%	4%	·	·	·	0%	-2%	·
Cc1cc(NC(=O)C23CC4CC(CC(C4)C2)C3)n[nH]1	19%	6%	·	?	·	3%	4%	7%[46.1 µM]
CCc1ccc(NS(=O)(=O)c2[nH]ncc2C(=O)OC)cc1	·	·	0.1%	?	7%	·	22%	23%[46.1 µM]
CCOC(=O)N1CCN(C(=O)c2ccc3c(=O)n(-c4ccc(F)cc4)c(=S)[nH]c3c2)CC1	4%	7%	-4.3%	-3%	16%	5%	-20%	1%
CCOC(=O)c1[nH]c(C)c(C(=O)OC(C)C(=O)Nc2ncc(Cl)cc2Cl)c1C (configuration not stated)	4%	2%	3.5%	?	3%	5%	-15%	?
